Six1-Eya2 blk – qHTS Assay for Inhibitors of the Six1/Eya2 Interaction | AlphaScreen GST-Six1/His-Eya2 binding, biochemical; hits give low values; control for the full effect not named in the record | activity change, % (no concentration beside the values) | 360,000 tested, 0.56% active; in the data active = activity change below about -65%; inconclusive = about -30% to -65%; inactive = above about -30%; also: % is scaled to controls: 0 for no effect and ±100 for the full control effect; compound concentration not given in the record
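Homogeneous AlphaScreen proximity assay pairing GST-Six1 with His-tagged Eya2 (added as 5X mix: 250 nM and 500 nM) in 50 mM Tris pH 8.0, 300 mM NaCl, 1 mM TCEP. Glutathione donor and nickel acceptor beads; 1 h, 37 °C, dark.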
Sfp PPTase inh – qHTS Assay for Inhibitors of Bacillus subtilis Sfp phosphopantetheinyl transferase (PPTase); AID 1490, 2009; Biochemical Sfp PPTase activity, qHTS; 310,000 tested, 3.5% active; Potency, µM, for inactives: max response, negative = inhibition, usual class: inhibitors; 4'-phosphopantetheinyl transferase ffp (Bacillus subtilis), Q9F4F7; active = well fitted inhibition curve with a large enough effect; inconclusive = small, poorly fitted or top-dose-only effect, or another doubt; inactive = no such curve, though single readings can be large or run the other way;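 also: the enzyme is Sfp with the accession as filed and its product quenches rhodamine fluorescence; potency is read from the fitted curve at half-maximal effect; 0% = enzyme reaction without inhibitor and -100% = no enzyme wells; top concentration of the series not given in the record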
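After 15 min at room temperature with compound, 15 nM Sfp received 5 uM rhodamine-CoA plus 12.5 uM BHQ-2-ybbR (50 mM Hepes pH 7.6, 10 mM MgCl2). Rate came from the fluorescence difference over 30 min, ex 525/em 598 nm.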
D2 ag – Beta-Arrestin HTS for Positive Allosteric Modulators of the Human D2 Dopamine Receptor: Agonists; DiscoveRx PathHunter D2 beta-arrestin, luminescence, 90 min; 100% = 57 uM dopamine signal; activation, % (no concentration beside the values); 360,000 tested, 0.084% active; in the data active = activation above about 40%; inconclusive = about 15% to 40%; inactive = below about 15%; also: compound concentration not given in the record; the text of the record calls up to 30% inactive
Target sequence (P14416 whole entry, looked up): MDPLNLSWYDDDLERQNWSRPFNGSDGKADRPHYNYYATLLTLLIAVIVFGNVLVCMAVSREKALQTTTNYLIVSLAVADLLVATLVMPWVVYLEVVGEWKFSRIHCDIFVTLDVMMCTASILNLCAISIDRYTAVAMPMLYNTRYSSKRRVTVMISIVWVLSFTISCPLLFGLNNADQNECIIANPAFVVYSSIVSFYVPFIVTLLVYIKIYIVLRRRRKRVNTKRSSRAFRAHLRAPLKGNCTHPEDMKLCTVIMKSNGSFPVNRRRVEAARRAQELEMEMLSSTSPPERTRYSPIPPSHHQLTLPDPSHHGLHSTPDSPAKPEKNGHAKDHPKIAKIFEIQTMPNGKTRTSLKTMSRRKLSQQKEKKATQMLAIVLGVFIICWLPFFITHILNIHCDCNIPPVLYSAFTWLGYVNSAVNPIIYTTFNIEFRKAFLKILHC
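Agonist mode: compounds alone added to overnight-plated D2 PathHunter cells for 90 min at 37 C, with 57 uM final dopamine (EC100) defining full response. Beta-arrestin recruitment detected by chemiluminescent reagent, read after 1 h at ambient temperature.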
CtBP-E1A inh – qHTS Assay for Inhibitors of the CtBP/E1A Interaction. AlphaScreen GST-E1A/His-CtBP binding, 1536-well; hits give low values; control for the full effect not named in the record. 340,000 tested, 0.49% active. activity change, % (test concentration not listed); in the data active means activity change below about -65%; inconclusive means about -30% to -65%; inactive means above about -30%; also: % is scaled to controls: 0 for no effect and ±100 for the full control effect; compound concentration not given in the record
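In 5 uL wells, 23 nL compound meets equimolar GST-E1A and His-CtBP (5X stock 125 nM each) for 2 h, 37 °C. Beads (5X, 50 ug/mL) then 1 h, 37 °C, dark.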
TRPV1 potentiator – HTS Assay for Compounds that Act as Potentiators of the Vanilloid Receptor 1 | TRPV1-expressing cells, Fluo-8 calcium influx, capsaicin EC20 potentiation; host cell line not named in the record; control for the full effect not named in the record | potentiation, % at 8.33 µM | 320,000 tested, 0.02% active | Transient receptor potential cation channel subfamily V member 1 (Homo sapiens), Q8NER1 | AID 540277, 2011; active means potentiation above 80%; inconclusive means 30% to 80%; inactive means below 30%; also: 0% is about no effect
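Fluo-8 calcium influx in TRPV1-expressing cells, kinetic read (ex 480/em 520 nm). Compound added and read 3 min for agonist activity, followed by capsaicin at EC20 final and 2 min further read for enhancement.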
PINK1 expr mod – A Quantitative High throughput Screen to Identify Chemical Modulators of PINK1 Expression | Potency, µM (top dose mostly 76.6 µM), for inactives: top-dose activation (PINK1 increase), hits mostly activators | 410,000 tested, 0.2% active | PINK1 immunofluorescence, high-content cytometry, 24 h; active = well fitted activation curve with a large enough effect; inconclusive = small, poorly fitted or top-dose-only effect; inactive = flat fitted curve, though single readings scatter; cell line not stated here;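 also: potency is read from the fitted curve at half-maximal effect; % of control where 0% means no effect; nearly all actives have a fitted effect of over 65% in size; a mitochondrial uncoupler was the plate control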
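Readout is PINK1 immunofluorescence, quantified alongside mitochondrial, cell and nuclear markers by laser-scanning microplate cytometry. Cells from a stable line were exposed to compound titrations (5 concentrations) for 24 hours, with CCCP controls.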
D2 PAM – Beta-Arrestin HTS for Positive Allosteric Modulators of the Human D2 Dopamine Receptor: Potentiators. D(2) dopamine receptor (Homo sapiens), P14416. DiscoveRx D2 beta-arrestin cells, luminescence, 90 min; 100% = 57 uM dopamine signal. potentiation, % (no concentration beside the values). 360,000 tested, 0.23% active; active = potentiation of 50% or more; inconclusive = 30% to 50%; inactive = 30% or less;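 also: compound concentration not given in the record; tested on top of an EC20 dose of dopamine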
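PathHunter beta-arrestin assay in DiscoveRx D2 cells. Compounds were added with an EC20 of dopamine (50 nM final) for 90 min at 37 deg C. Luminescence was read 1 h after detection reagent, with 57 uM dopamine as the EC100 control.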
* marks the source's active call; other numbers are inactive results; ? = inconclusive; / = no result given; & = joins results of further samples; [ ] = dose if it differs, or a comment.

(1) C=CCN(c1ccccc1)S(=O)(=O)c1cccc(C(=O)NC2CCC(O)CC2)c1 (stereo not drawn)
(2) CC(=O)OCC(=O)C1CCC2C3CCC4=CC(=O)C=CC4(C)C3CCC12C (stereo not drawn)
(3) CC1(C)CC(=O)C(CC(=O)Nc2cc(C(F)(F)F)ccc2Cl)C(=O)C1
(4) CN1CCN(CC(=O)Nc2ccc(Cl)cc2Cl)CC1
(5) N=C1C(=O)OCC1c1ccccc1NC(=O)c1ccc(F)cc1 (stereo not drawn)
(6) CC1CCCCN1Cc1c(O)ccc2c(=O)c(-c3ccc(Br)cc3)coc12 (stereo not drawn)
(7) O=C(Nc1cccc([N+](=O)[O-])c1)C1CC(=O)N(C2CCCCC2)C1 (stereo not drawn)
(8) O=C(O)CCCNC(=O)CCCNC(=O)C(c1ccccc1)c1ccccc1

Screen / compound no. | 1 | 2 | 3 | 4 | 5 | 6 | 7 | 8
Six1-Eya2 blk | 0 | -1 | 13 | 0 | 8 | 1 | 2 | -7
Sfp PPTase inh | / | / | 15% | 10% | 5% | 8% | -6% | 2%
D2 ag | -3.4 | -4.8 | -2.5 | -1.7 | -5.6 | -7.7 | -2.6 | -2.4
CtBP-E1A inh | -1 | 18 | -3 | 4 | -16 | 2 | -3 | 1
TRPV1 potentiator | -27 | / | 11 | 13 | 0 | -23 | -2 | 1
PINK1 expr mod | 0.1% | -2.7% | -0.8% | 0.2%[38.3 µM] | 1.5% | -2.0% | -0.4% | -2.1%
D2 PAM | -35 | -11 | -10 | -5 | -20 | -8 | -24 | -10

(9) O=C(/C=C/c1ccccc1Cl)c1ccccc(=O)c1O
(10) CC(OC(=O)C1CCN(c2ccc(C(F)(F)F)cn2)CC1)C(=O)Nc1ccc(S(N)(=O)=O)cc1 (stereo not drawn)
(11) CSc1ccccc1C(=O)NC1CCCN(Cc2ccccc2F)C1 (stereo not drawn)
(12) O=S(=O)(c1ccc(-n2cnnn2)cc1)N1CCNCC1
(13) CCOc1ccc(C(=O)CCC(=O)Nc2ccccc2C)cc1
(14) O=C(CN1C(=O)NC2(CCCc3ccccc32)C1=O)NCc1ccc(Cl)cc1Cl (stereo not drawn)
(15) CC(C(=O)N(C)Cc1ccccc1)N1CCN(C/C=C/c2ccccc2)CC1 (stereo not drawn)
(16) CCCCn1c(N)c(N(CCC(C)C)C(=O)C2CC(=O)N(CCc3ccc(OC)c(OC)c3)C2)c(=O)[nH]c1=O (stereo not drawn)

Screen / compound no. | 9 | 10 | 11 | 12 | 13 | 14 | 15 | 16
Six1-Eya2 blk | -20 | 1 | 15 | -9 | 4 | 1 | 33 | 5
Sfp PPTase inh | 45µM* | -3% | 1% | 9% | 13% | 10% | -13% | /
D2 ag | -8.2 | 1.6 | 0.0 | -1.4 | -5.3 | -5.4 | ? | -0.8
CtBP-E1A inh | 5 | 1 | 0 | -18 | 9 | 3 | -1 | -12
TRPV1 potentiator | 13 | -4 | 5 | -10 | 10 | -1 | -5 | -2
PINK1 expr mod | 14% | 11% | 0.8% | -0.4% | 0.2% | -2.2% | 3.5% | 4.6%
D2 PAM | -23 | ? | -11 | -6 | -2 | -5 | -4 | 4

One compound at a time (already shown). Order of values: Six1-Eya2 blk | Sfp PPTase inh | D2 ag | CtBP-E1A inh | TRPV1 potentiator | PINK1 expr mod | D2 PAM
`CSc1ccccc1C(=O)NC1CCCN(Cc2ccccc2F)C1` (stereo not drawn) across the screens: 15 | 1% | 0.0 | 0 | 5 | 0.8% | -11
`O=C(/C=C/c1ccccc1Cl)c1ccccc(=O)c1O` across the screens: -20 | 45µM* | -8.2 | 5 | 13 | 14% | -23
`CCOc1ccc(C(=O)CCC(=O)Nc2ccccc2C)cc1` across the screens: 4 | 13% | -5.3 | 9 | 10 | 0.2% | -2

The list continues.
(17) C[C@@]12C(=O)Nc3cc(F)c(F)cc3C(=O)N1[C@H]1c3cc(Cl)ccc3OC[C@@H]1[C@@H]2c1ccccc1
(18) Cc1ccc(Nc2c(F)c(F)c(F)c(F)c2C(=O)O)cc1
(19) CC1CC(NS(=O)(=O)c2cc3c4c(c2)CCN4C(=O)CC3)CC(C)(C)C1 (stereo not drawn)
(20) COC(=O)C1C2CC(=O)C(C2)C1C(=O)OC (stereo not drawn)
(21) CC(C)OC(=O)N(C)C[C@H]1OCc2cnnn2CCCC(=O)N([C@@H](C)CO)C[C@H]1C
(22) CN(C)CCCN(C(=O)C1=COCCO1)c1nc2ccc(Br)cc2s1
(23) COC(=O)c1sc(N)c(C(=O)OC)c1CSc1nnc(-c2ccccc2Cl)n1C
(24) O=C(COc1ccccc1/C=C1\SC(=S)NC1=O)Nc1ccc(F)cc1

Screen / compound no. | 17 | 18 | 19 | 20 | 21 | 22 | 23 | 24
Six1-Eya2 blk | -11 | 4 | -3 | -1 | 9 | 0 | 0 | -30
Sfp PPTase inh | / | 23% | / | / | / | -5% | 1% | /
D2 ag | -0.2 | -1.8 | -3.4 | -4.1 | -6.8 | 2.3 | 0.8 | -0.7
CtBP-E1A inh | -9 | 3 | -1 | 0 | 3 | -1 | 3 | -85*
TRPV1 potentiator | / | 2 | -5 | / | / | 3 | 6 | /
PINK1 expr mod | 1.5% | 0.7% | 0.5% | -4.3% | 0.7% | 1.0% | 3.2%[38.3 µM] | 32µM*
D2 PAM | -11 | -1 | -21 | -3 | 1 | -29 | -1 | -8

(25) COC(=O)c1sc(NC(=O)CSc2nnnn2C)nc1C
(26) CCOc1ccc(CCNC(=O)Cn2c(-c3nonc3N)nc3ccccc32)cc1OCC
(27) COCCCN1CN(S(=O)(=O)c2cccs2)c2nc3ccccc3nc21
(28) COC(=O)C1C(=O)C=C(N2CCOCC2)CC1(C)C (stereo not drawn)
(29) COc1ccc(NC(=S)NCCCCCC(=O)C[N+](=O)[O-])cc1
(30) Cc1ccc2c(CSc3nncs3)cc(=O)oc2c1
(31) CCN(CC)S(=O)(=O)c1ccc(C(=O)OCC(=O)Nc2ccc(-c3nc4ccc(C)cc4s3)cc2)cc1
(32) COc1nc(NC2CCCCC2)nc(N2CCCCCC2)n1

Screen / compound no. | 25 | 26 | 27 | 28 | 29 | 30 | 31 | 32
Six1-Eya2 blk | -3 | 6 | 9 | 2 | ? | 1 | 5 | 0
Sfp PPTase inh | 6% | -1% | 3% | -4% | -34% | -10% | -8% | 1%
D2 ag | 0.5 | 1.1 | -0.2 | 0.4 | -1.1 | 0.9 | -1.6 | -1.2
CtBP-E1A inh | 5 | 8 | 1 | 7 | -6 | 7 | 8 | 9
TRPV1 potentiator | -3 | 6 | -12 | ? | 2 | -4 | -1 | -14
PINK1 expr mod | 0.4% | 5.3% | -0.4% | 0.5% | 0.5% | / | 4.0% | 4.7%
D2 PAM | -6 | -24 | -3 | -2 | -5 | -1 | 0 | -28

(33) C#CCOCCOCCOCCNc1nc(N2CCN(C(=O)C([C@@H](C)CC)n3cc(C(N)CO)nn3)CC2)nc(N2CCN(C(=O)C([C@@H](C)CC)n3cc(C(N)COC(=O)C(F)(F)F)nn3)CC2)n1 (stereo partly drawn)
(34) COC(=O)C[C@H]1c2cc(C(F)(F)F)ccc2S(=O)(=O)N1C1CCCCC1
(35) O=C(Nc1nc(-c2ccc(F)cc2)cs1)c1ccc(N2C(=O)CCC2=O)cc1
(36) Nc1c(C(=O)Nc2cccc(Cl)c2Cl)sc2nc(-c3cccnc3)ccc12
(37) CC(=O)Nc1cccc(-c2cc3nc(NCc4cccnc4)n(C)c(=O)c3s2)c1
(38) CC1CCCN(C(=O)Cn2c(=O)oc3cc(S(=O)(=O)N4CCCCC4C)ccc32)C1 (stereo not drawn)
(39) O=C(Cn1cnc2c(cnn2-c2ccccc2)c1=O)c1ccc(Cl)cc1
(40) Cc1noc(C)c1COc1ccccc1C(=O)N1CCN(S(=O)(=O)c2ccccc2C(F)(F)F)CC1

Screen / compound no. | 33 | 34 | 35 | 36 | 37 | 38 | 39 | 40
Six1-Eya2 blk | -12 | 7 | 1 | 10 | -6 | 8 | 2 | -1
Sfp PPTase inh | / | / | 0% | -1% | / | / | 19% | /
D2 ag | -5.5 | -3.4 | -0.6 | -1.3 | 3.8 | -6.1 | -6.2 | -4.5
CtBP-E1A inh | -19 | 6 | 0 | 13 | 0 | -2 | 4 | 8
TRPV1 potentiator | / | / | -12 | 18 | / | / | -17 | 3
PINK1 expr mod | 0.3% | 0.1% | 11% | 12% | 9.5% | 3.0% | 0.1% | -0.5%
D2 PAM | -5 | -5 | 1 | 3 | 7 | 3 | -7 | -1

(41) CCCCNc1c(-c2cccc(SC3CCCCC3)c2)nc2ccc(Cl)cn12
(42) COC(=O)C1C(=O)c2c([nH]c(C(=O)OC3CCCC3)c2C)CC1C (stereo not drawn)
(43) O=C(c1ccc(C(=O)N2CCCc3ccccc32)nc1)N1CCCc2ccccc21
(44) S=c1[nH]c(-c2cccs2)cn1-c1ccccc1
(45) CC1(NC(=O)c2cc(Cl)nc3ccccc23)CCS(=O)(=O)C1 (stereo not drawn)
(46) CC1(C(=O)Nc2ccc3c(c2)OCCO3)CCN1Cc1ccccc1OC(F)F (stereo not drawn)
(47) CCOC(=O)C1=C(CN2CCN(C(=O)c3ccco3)CC2)NC(=O)NC1c1ccc(C)cc1 (stereo not drawn)
(48) O=C(N/N=C/c1c[nH]c2ccc(Br)cc12)c1ccccn1

Screen / compound no. | 41 | 42 | 43 | 44 | 45 | 46 | 47 | 48
Six1-Eya2 blk | 20&7 | 0 | 4 | -8 | 0 | -3 | -14 | -12
Sfp PPTase inh | / | 12% | 10% | 16µM* | / | / | 11% | 3%
D2 ag | -1.2 | 4.1 | 0.2 | -0.8 | -2.6 | -4.7 | 1.9 | -0.5
CtBP-E1A inh | 24&-1 | 11 | 13 | -10 | -1 | 0 | / | 22
TRPV1 potentiator | 5 | 19 | 9 | 14 | -7 | / | 6 | 0
PINK1 expr mod | 9.4%&12% | 4.8% | -4.4%[38.3 µM] | -3.3% | 0.9% | -0.1% | 0.1% | -0.7%
D2 PAM | -7 | -11 | -7 | -8 | 0 | -4 | -12 | -42
